TRPML1 blocker = human mucolipin-1 channel inhibition; Q9GZU1; TRPML1-inducible cells, Ca2+ dye fluorescence, FDSS; hits give low values; inhibition of EC80 agonist-evoked calcium signal; activity change, negative = inhibition, % (test concentration not listed); 390,000 compounds, 0.02% hits; in the data active means activity change below about -50%; inconclusive means about -30% to -50%; inactive means above about -30%;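 note: stimulus is agonist 54-4 at its EC80 concentration; % is set by controls: 0 for no effect and ±100 for the full control effect; compound concentration not given in the record; the text of the record puts the active cut at -80%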
Target sequence (Q9GZU1 whole entry, looked up): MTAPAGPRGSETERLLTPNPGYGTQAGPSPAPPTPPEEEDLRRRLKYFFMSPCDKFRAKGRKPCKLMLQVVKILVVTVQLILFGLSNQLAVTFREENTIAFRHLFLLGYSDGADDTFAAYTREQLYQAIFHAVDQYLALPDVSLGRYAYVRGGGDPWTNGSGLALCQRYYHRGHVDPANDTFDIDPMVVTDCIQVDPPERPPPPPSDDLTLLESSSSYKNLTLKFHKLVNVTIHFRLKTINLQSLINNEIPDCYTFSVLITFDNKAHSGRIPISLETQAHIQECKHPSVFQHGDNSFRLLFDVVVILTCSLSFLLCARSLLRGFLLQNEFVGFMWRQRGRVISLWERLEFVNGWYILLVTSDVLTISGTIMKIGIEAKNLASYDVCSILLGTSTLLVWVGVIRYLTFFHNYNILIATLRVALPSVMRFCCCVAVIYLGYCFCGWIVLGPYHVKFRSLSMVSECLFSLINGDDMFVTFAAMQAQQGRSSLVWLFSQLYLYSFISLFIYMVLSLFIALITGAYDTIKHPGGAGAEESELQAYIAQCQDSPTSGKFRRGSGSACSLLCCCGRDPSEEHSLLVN
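Calcium fluorescence in TRPML1-DL cells induced overnight with Tet: a 110 s read after compound pin addition, then a 110 s antagonist read after challenge with 54-4 at 4 uM final (EC80).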
PINK1 expr mod = changes PINK1 expression; PINK1 immunofluorescence, high-content cytometry, 24 h; Potency, µM (top dose mostly 76.6 µM), for the others: at the highest dose activation (PINK1 increase), actives largely listed as activators; 410,000 compounds, 0.2% hits; AID 624263; active = well fitted activation curve with a large enough effect; inconclusive = small, poorly fitted or top-dose-only effect; inactive = flat fitted curve, though single readings scatter; cell line not stated here;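 note: potency is the fitted concentration of half-maximal effect; % of control where 0% means no effect; nearly all actives have a fitted effect of over 65% in size; a mitochondrial uncoupler was the plate control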
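Measures PINK1 amount and localization on or inside mitochondria by immunofluorescence. Stable cells get compounds at 5 concentrations for 24 hours before fixation and staining; CCCP controls included.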
TRPML1 ag = agonists of human TRPML1 channel; activation, % (test concentration not listed); Q9GZU1; AID 624414; TRPML1-expressing cells, Ca2+ dye fluorescence, FDSS; host cell line not named in the record; reference of the full effect not given here; 410,000 compounds, 0.12% hits; in the data active = activation above about 50%; inconclusive = about 30% to 50%; inactive = below about 30%; note: 0% is about no effect; the text of the record puts the active cut at 80%
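Kinetic FDSS Ca2+ read in Tet-induced TRPML1-DL cells (ABD Ca8 dye plus quencher, 45-90 min RT loading): baseline, then compound, then 110 s agonist window; EC80 agonist 54-4 at 4uM final added afterwards for a 110 s antagonist window.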
D2 potentiator = potentiates the human D2 dopamine receptor allosterically. P14416. DiscoveRx D2 beta-arrestin cells, luminescence, 90 min; 100% = 57 uM dopamine signal. potentiation, % (concentration not given with the values). 360,000 compounds, 0.23% hits. AID 624464; active = potentiation of 50% or more; inconclusive = 30% to 50%; inactive = 30% or less;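 note: tested on top of an EC20 dose of dopamine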
Target sequence (P14416 whole entry, looked up): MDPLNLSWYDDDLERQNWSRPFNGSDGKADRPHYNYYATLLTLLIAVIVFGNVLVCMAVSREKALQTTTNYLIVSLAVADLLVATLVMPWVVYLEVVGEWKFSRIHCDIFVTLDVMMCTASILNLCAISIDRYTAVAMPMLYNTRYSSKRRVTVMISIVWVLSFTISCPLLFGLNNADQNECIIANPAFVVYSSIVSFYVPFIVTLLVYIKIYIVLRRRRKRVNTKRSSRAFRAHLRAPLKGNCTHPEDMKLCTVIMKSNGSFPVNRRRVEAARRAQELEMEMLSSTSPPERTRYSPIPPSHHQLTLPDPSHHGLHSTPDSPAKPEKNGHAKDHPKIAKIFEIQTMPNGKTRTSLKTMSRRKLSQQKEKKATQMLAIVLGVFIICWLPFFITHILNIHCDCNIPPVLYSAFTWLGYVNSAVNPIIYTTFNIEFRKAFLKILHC
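PathHunter beta-arrestin assay in DiscoveRx D2 cells. Compounds were added with an EC20 of dopamine (50 nM final) for 90 min at 37 deg C. Luminescence was read 1 h after detection reagent, with 57 uM dopamine as the EC100 control.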
D2 ag = agonists of human D2 dopamine receptor (beta-arrestin). 360,000 compounds, 0.084% hits. activation, % (test concentration not listed). DiscoveRx PathHunter D2 beta-arrestin, luminescence, 90 min; 100% = 57 uM dopamine signal. AID 624465. P14416; in the data active = activation above about 40%; inconclusive = about 15% to 40%; inactive = below about 15%; note: compound concentration not given in the record; the text of the record calls up to 30% inactive
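Agonist mode: compounds alone added to overnight-plated D2 PathHunter cells for 90 min at 37 C, with 57 uM final dopamine (EC100) defining full response. Beta-arrestin recruitment detected by chemiluminescent reagent, read after 1 h at ambient temperature.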
Six1-Eya2 inh = Six1/Eya2 interaction inhibition; AlphaScreen GST-Six1/His-Eya2 binding, biochemical; hits give low values; control for the full effect not named in the record; activity change, % (test concentration not listed); 360,000 compounds, 0.56% hits; AID 651725; in the data active = activity change below about -65%; inconclusive = about -30% to -65%; inactive = above about -30%; note: % is set by controls: 0 for no effect and ±100 for the full control effect
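AlphaScreen with GST-Six1 and His-Eya2 (5X mix: 250 nM and 500 nM), glutathione donor and nickel acceptor beads; buffer 50 mM Tris pH 8.0, 300 mM NaCl, 1 mM TCEP; 1 h at 37 C in the dark.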
* marks the source's active call; other numbers are inactive results; u = inconclusive; x = not tested or not shown; & = joins results of further samples; [ ] = another dose, or the depositor's remark.

SMILES | TRPML1 blocker | PINK1 expr mod | TRPML1 ag | D2 potentiator | D2 ag | Six1-Eya2 inh
Cc1nc2c3ccccc3nc(NNC(=O)CCC(=O)NCCN3CCN(c4ccccc4)CC3)n2n1 | -13 | 5.3% | 0.0 | -4 | 0.3 | -22
Cc1cc(/C=C2\SC(=S)N(C)C2=O)c(C)n1-c1ccc(O)cc1 | x | u | x | -3 | 9.3 | -9
c1ccc(Cn2nnc3ccccc32)cc1 | -15 | -0.6% | -1.3 | -1 | -1.2 | -5
CCCc1ccc(OCc2nc(-c3ccc(NC(=O)c4ccco4)cc3)no2)cc1 | -5 | 13% | -0.4 | 0 | -1.6 | 24
COc1ccc(NS(=O)(=O)c2ccc(NC(=O)N3CCCC3)cc2)cc1 | 3 | 5.2% | 1.0 | x | x | x
CC(C)n1nnnc1SCC(=O)NCc1cccs1 | 0 | 0.1% | 0.5 | -12 | -0.6 | 3
C=CCNc1nc(=S)[nH]c2cc(OC)c(OC)cc12 | -3 | 2.0% | -1.0 | -8 | -4.5 | -83*
O=C(COc1ccc(Br)cc1CNC1CCCC1)Nc1ccccc1 | 25 | u | 1.3 | -19 | 3.2 | 1
CCN1CCN(c2ccc(S(=O)(=O)N3CCCCC3)cc2N)CC1 | 2 | -0.4% | -0.6 | -5 | -3.6 | 4
COCCNC(=O)CCc1nc(-c2ccccc2)no1 | -10 | 3.0% | -0.3 | 5 | -1.2 | 9
C=CCOc1ccc(/C=C2\SC(=S)N(CCC(=O)O)C2=O)cc1 | x | -0.1% | x | -13 | -3.5 | -9
Cc1nc2ccccc2n1C(C)c1ccccc1 (stereo unspecified) | 0 | 2.7% | -0.6 | -4 | -5.4 | -1
CCOC(=O)c1c(C)[nH]c(C(=O)OCC(=O)NC2(C#N)CCCCC2)c1C | -3 | 0.8% | 1.7 | -7 | -4.4 | -4
Cc1ccc(-n2nnnc2CSc2nnc(-c3ccc(O)cc3)o2)cc1 | 14 | 4.1% | 0.0 | -1 | 4.4 | -2
O=S(=O)(c1cccc(-c2csc(N/N=C/c3ccco3)n2)c1)N1CCOCC1 | -7 | -1.6% | 1.6 | 22 | 14 | 1
CCOC(=O)c1c(NC(C)=O)c2c3c(sc2n1Cc1nc(-c2cccc(Cl)c2)oc1C)CCCC3 | 5 | 0.7% | -0.4 | x | x | x
O=C(NC(c1ccc(Cl)cc1)c1ccsc1)C1CCN(Cc2ccc(Oc3ccccc3)cc2)CC1 (stereo unspecified) | x | 9.0% | 0.4 | -14 | -4.0 | -7
CSc1ccc(CN2CCC2(C)C(=O)NCc2ccc3c(c2)OCO3)cc1 (stereo unspecified) | x | -0.4% | -1.0 | -16 | -3.3 | -13
CC(O)(c1ccccc1)c1nc(-c2ccc3c(c2)OCO3)cs1 (stereo unspecified) | x | 4.1% | -0.6 | -8 | 4.0 | -4
O=C(Nc1cccc2c1CCCC2)c1ccc(Br)o1 | 16 | 3.4% | 6.2 | -31 | -6.6 | -3
Cc1ccccc1Oc1cc(NC(=O)Cn2cnc([N+](=O)[O-])c2)cc([N+](=O)[O-])c1 | -6 | u | 0.9 | -5 | -2.3 | -6
COc1ccc(OC)c(/C=N\NC(=O)c2ccc(COc3ccc(C)cc3[N+](=O)[O-])o2)c1 | 11 | 6.5% | -0.4 | -7 | -5.5 | -23
CCC1=C(c2cc(OC)c(OC)c(OC)c2)C2(CCCC2)C(=O)O1 | 14 | 4.7% | 1.5 | 0 | 3.4 | 4
OCCNc1c2ccccc2nc2ccccc12 | -3 | -0.5% | 0.7 | -9 | 0.9 | -21
c1ccc(COc2ccc(OCCCn3cncn3)cc2)cc1 | -6 | -0.3% | 0.5 | -16 | -0.7 | -2
SMILES | TRPML1 blocker | PINK1 expr mod | TRPML1 ag | D2 potentiator | D2 ag | Six1-Eya2 inh
CCC1COCCS(=O)(=O)N1Cc1ccc(F)cc1 (stereo unspecified) | -5 | 1.2% | -0.3&-0.7 | -10 | -1.8 | 3
Cc1cc(C(=O)COC(=O)c2nn(C)c(=O)c3ccccc23)c(C)n1C | 14 | 1.1% | 1.0 | -1 | 1.1 | 1
CSc1ccc(-c2nc(CSCC(=O)N3CCOCC3)c(C)o2)cc1 | -2 | 1.0% | -1.2 | 11 | -0.7 | -6
CCOc1ccc(C(C)NC(=O)CCC(=O)O)cc1 (stereo unspecified) | 14 | 2.0% | -0.6 | 12 | -1.2 | -2
CCCc1cc(=O)[nH]c(SCC(=O)c2c[nH]c3ccccc23)n1 | 15 | -0.3% | 1.5 | -3 | 0.8 | -6
CCOc1ccc(CCNC(=O)CN(C)S(=O)(=O)c2cccc3nsnc23)cc1OCC | 1 | -2.8% | 0.3 | -3 | -3.9 | 8
COc1ccc(OC)c(CNC(=O)c2cnc(N(C)C)nc2)c1 | 8 | -0.1% | 1.4 | x | x | x
Cc1ccccc1NC(=O)Nc1cccs1 | 2&22 | 2.6%&0.3% | 0.3&-0.4 | -18 | -0.6 | -1
Cc1c(NC(=O)c2cnn3c2NC(c2ccc(Br)cc2)CC3C(F)(F)F)c(=O)n(-c2ccccc2)n1C (stereo unspecified) | 30 | 8.8% | 1.1 | -9 | -4.1 | -2
CC(C)(C)SCCNC(=O)c1ccc(NS(C)(=O)=O)cc1 | -3 | 1.6%[38.3 µM] | -0.3 | -17 | -1.9 | 1
CS(=O)(=O)Nc1ccc(C(=O)NCc2cccnc2)cc1 | 0 | x | -0.5 | -22 | 0.5 | 5
CC/C(=N/Nc1ccccc1)c1cnnc(-c2ccccc2)n1 | 11 | u | -0.5 | -17 | -1.7 | -1
Nn1c(Nc2ccccc2)nc2ccccc21 | 7 | 1.0% | -0.4 | 3 | -0.7 | 6
OCCC1CN(CC2CC2)CCN1Cc1ccc(F)c(F)c1 (stereo unspecified) | 18 | 0.4% | 0.2 | -29 | -3.5 | 5
CC(=O)OC1[C@H](Oc2c(O)c(C)c3c4c2[C@@H](C)CC[C@@H]4[C@@H](C)C[C@@H]3C=C(C)C)OC[C@@H](O)[C@@H]1O (stereo partly specified) | -20 | 6.7% | -0.1 | 3 | 3.3 | -4
Cc1cccc(C(=O)N2CC3(C)CC2CC(C)(C)C3)c1 (stereo unspecified) | 9 | -1.0% | -1.5 | -6 | -6.2 | 2
Cc1ccccc1NC(=O)c1[nH]cnc1C(=O)NN | 5 | 5.4% | -1.5 | -4 | -4.7 | u
Cn1cc(CNC(=O)CC2C(=O)NCCN2CC(C)(C)C)cn1 (stereo unspecified) | -9 | -1.4% | 0.7 | -1 | -2.0 | -2
O=c1[nH]c2ccc(S(=O)(=O)Nc3ccccc3O)cc2[nH]1 | -14 | -0.5% | 3.0 | 5 | 2.5 | 6
CCOC(=O)c1ccc(NC(=O)COc2ccc(-n3cnnn3)cc2)cc1 | -16 | 5.4% | -0.5 | 3 | -2.2 | -18
COc1ccccc1OCc1nc(C#N)c(N2CC(C)CC(C)C2)o1 (stereo unspecified) | 4 | 3.4% | -0.6 | -4 | -0.3 | -23
COc1ccc(NC(=O)NCc2ccccc2F)cc1OC | 2 | 1.7% | 1.4 | -1 | -1.1 | -5
O=[N+]([O-])c1ccc(CS(=O)(=O)c2ncn[nH]2)cc1 | -15 | 2.1% | 0.1 | -3 | -1.7 | 0
CCCSc1ncnc2c1oc1ccccc12 | -3 | 2.8%[38.3 µM] | 0.7 | -10 | -0.3 | 21
O=C(CSc1nc2c(cnn2-c2ccc(F)cc2)c(=O)[nH]1)Nc1ccc(Br)cc1 | 19 | 1.2% | -0.7 | x | x | x

An excerpt from above in order of the D2 ag value, falling:
| structure | TRPML1 blocker | PINK1 expr mod | D2 potentiator | D2 ag | Six1-Eya2 inh |
| --- | --- | --- | --- | --- | --- |
| CC(=O)OC1[C@H](Oc2c(O)c(C)c3c4c2[C@@H](C)CC[C@@H]4[C@@H](C)C[C@@H]3C=C(C)C)OC[C@@H](O)[C@@H]1O (stereo partly specified) | -20 | 6.7% | 3 | 3.3 | -4 |
| CCCc1cc(=O)[nH]c(SCC(=O)c2c[nH]c3ccccc23)n1 | 15 | -0.3% | -3 | 0.8 | -6 |
| CCC1COCCS(=O)(=O)N1Cc1ccc(F)cc1 (stereo unspecified) | -5 | 1.2% | -10 | -1.8 | 3 |

The listing continues.
SMILES | TRPML1 blocker | PINK1 expr mod | TRPML1 ag | D2 potentiator | D2 ag | Six1-Eya2 inh
CCn1c(COc2ccc(C)cc2)nnc1SCC(=O)NNC(=O)c1ccc(OC)cc1 | -9 | 1.0% | 0.7 | -21 | -2.7 | 0
CCOC(=O)C(O)(NC(=O)c1cccnc1)C(F)(F)F (stereo unspecified) | -25 | 1.1% | -0.8 | -3 | -2.9 | -2
O=C(Nc1ccc(Cl)cc1)N[C@@H]1c2c(ccc3ccccc23)OC[C@@H]1CO | 9 | 3.8%[38.3 µM] | 1.7 | 9 | -0.5 | 2
CCOC(=O)N1CCc2c(sc3c2c(=O)n(CCc2ccccc2)c(=O)n3Cc2cc(C)ccc2C)C1 | -20 | 0.4% | 0.5 | x | x | x
COC(=O)c1ccc(CSc2nc3ccncc3n2Cc2ccc(F)cc2)cc1 | 9 | 3.0% | 1.0 | x | x | x
CCOC(=O)C1CCN(C(=O)c2cc3ccc4cccnc4c3[nH]2)CC1 | -7 | 14% | 0.8 | x | x | x
CC1(C)OC(=O)C2=C(C[C@@H](CCc3ccccc3)O[C@H]2CCc2cccc(Cl)c2)O1 | x | 2.2% | 0.4 | x | x | 5
CC(C)Cc1nn2c(=O)cc(COC(=O)c3ccc4c(c3)OCO4)nc2s1 | -6 | -0.9% | -0.5 | x | x | x
Cc1cc(C(=O)Nc2c(C)nn(Cc3ccc(F)cc3)c2C)no1 | -17 | 0.1% | -1.3 | x | x | x
O=c1nc(SCc2c(F)cccc2Cl)nc(-c2ccc(Cl)cc2)[nH]1 | 25 | -0.8% | 2.3 | -1 | -5.3 | 7
CC1(/[N+]([O-])=C\c2ccccc2F)CCCCC1=O (stereo unspecified) | 8 | -2.2% | 0.6 | -3 | -2.3 | -5
COc1ccccc1C(=O)NC(CCSC)C(=O)OCC(=O)N1CCN(S(=O)(=O)c2ccc(C)cc2)CC1 (stereo unspecified) | -9 | -0.7% | -0.5 | -7 | -1.6 | 0
C=C(C)C1CC=C(C)/C(=N\NC(=O)CCc2ccccc2)C1 (stereo unspecified) | 17 | 13% | 1.4 | -20 | -2.2 | -1
CC(C)c1ccc(/C=N/n2cnnc2)cc1 | 19 | -1.9% | 1.9 | -1 | 13 | -4
COc1ccc(CN(C)C(=O)CNC(=O)c2ccc3ccccc3c2)c(OC)c1 | -1 | 0.3% | 0.2 | -5 | 1.6 | -2
COc1cccc(/C=C/C(=O)Nc2ccc(OC)nc2)c1 | 0 | 3.1% | -0.5 | -7 | -6.6 | -3
COC(=O)c1ccc2c(c1)nc(C)n2CCO | -19 | -1.2% | 0.4 | -1 | -0.7 | 4

3 entries from above, comma-delimited.
Compound,TRPML1 blocker,PINK1 expr mod,TRPML1 ag,D2 potentiator,D2 ag,Six1-Eya2 inh
CCOc1ccc(C(C)NC(=O)CCC(=O)O)cc1 (stereo unspecified),14,2.0%,-0.6,12,-1.2,-2
CCCc1cc(=O)[nH]c(SCC(=O)c2c[nH]c3ccccc23)n1,15,-0.3%,1.5,-3,0.8,-6
CCOc1ccc(CCNC(=O)CN(C)S(=O)(=O)c2cccc3nsnc23)cc1OCC,1,-2.8%,0.3,-3,-3.9,8

Bioassay records as filed in PubChem BioAssay.
